Source: PubChem (Broad Institute)
FGF22 binding = FGF22 (human) thermal shift binding; hit rate 1.5% among 340,000; recombinant FGF22 thermal shift, SYPRO orange fluorescence; percent of sucrose octasulfate shift, DMSO zero; calls only at 9.99 µM; Q9HCT0; AID 651658;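 active = melting point raised past a set limit in the mean and every replicate; three in four hits are not shown here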
Target sequence (Q9HCT0 whole entry, looked up): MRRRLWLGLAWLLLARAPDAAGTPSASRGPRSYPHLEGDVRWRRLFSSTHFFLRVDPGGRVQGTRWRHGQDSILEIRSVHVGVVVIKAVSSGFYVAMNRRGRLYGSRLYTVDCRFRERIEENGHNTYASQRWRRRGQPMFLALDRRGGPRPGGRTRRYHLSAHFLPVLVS
Ecoli rRNA inh = selective bacterial rRNA inhibition in E. coli; E. coli WT GFP vs humanized-ribosome RFP mutants, fluorescence, 24 h; hits give low values; DMSO median 0, no signal -100; hit rate 1.6% among 350,000; GFP signal change (wild-type ribosome), % (test concentration not listed);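 active = significant combined selectivity score with lowered wild-type GFP, culture density cut under 30%, mutant RFP and density less affected; inactive = any of these conditions unmet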; note: one replicate is shown; some compounds called inactive have numbers as strong as hits
AF4-AF9 inh = blocks AF4 peptide binding to human AF9; AlphaScreen, biotin-AF4 peptide binding to FLAG-AF9; inhibition, % at 10 µM; hit rate 0.47% among 350,000;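 active = every replicate reaching a set inhibition limit, whatever the replicate mean, cut at about 25% in these data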;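 note: 0% = plate neutral control median and 100% = total signal loss; the record names both 10 and 1 µM as test concentration; the first replicate is given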
Target sequence (P42568 whole entry, looked up): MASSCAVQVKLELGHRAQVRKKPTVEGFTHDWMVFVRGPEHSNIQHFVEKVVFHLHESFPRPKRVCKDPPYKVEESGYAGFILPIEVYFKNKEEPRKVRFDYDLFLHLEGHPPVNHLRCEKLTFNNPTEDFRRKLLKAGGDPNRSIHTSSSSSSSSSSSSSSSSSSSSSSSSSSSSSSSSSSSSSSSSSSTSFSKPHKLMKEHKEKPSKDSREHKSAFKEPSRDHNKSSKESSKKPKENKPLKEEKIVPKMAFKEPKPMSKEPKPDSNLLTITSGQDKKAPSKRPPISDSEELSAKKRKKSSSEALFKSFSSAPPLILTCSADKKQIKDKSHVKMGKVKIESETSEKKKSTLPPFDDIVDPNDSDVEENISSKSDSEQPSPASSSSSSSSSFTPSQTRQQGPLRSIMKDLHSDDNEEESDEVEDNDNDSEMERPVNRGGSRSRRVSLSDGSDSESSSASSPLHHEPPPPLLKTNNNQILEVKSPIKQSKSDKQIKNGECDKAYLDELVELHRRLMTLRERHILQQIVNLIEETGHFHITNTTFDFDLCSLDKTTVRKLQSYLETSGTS
Ecoli rRNA inh OD600 = further read-out of Ecoli rRNA inh, marked with its call; OD600 change, %; measured here: OD600 growth;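 optical density of the mix in the first replicate; 0 = DMSO median and -100 = no signal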
Ecoli rRNA inh RFP = further read-out of Ecoli rRNA inh, marked with its call; RFP signal change, %; measured here: RFP humanized mutant strains;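 first replicate; 0 = DMSO median and -100 = no signal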
* hit, by the source's call; i = inactive; · = no result given; + = active, no number; & = joins results of further samples.

FGF22 binding | AF4-AF9 inh | Ecoli rRNA inh RFP | Ecoli rRNA inh OD600 | Ecoli rRNA inh | compound
i | -5.3 | 3.9 | 14 | 14 | Cc1c(C(=O)NCCC#N)sc(=O)n1Cc1ccc(C(=O)N(C)C)cc1
i | -2.3 | 0.1 | 5 | 1 | O=C(NCC1CC1)[C@H]1[C@H](CO)[C@H]2Cn3c(ccc(C4=CCCC4)c3=O)[C@H]2N1C(=O)C1CC1
i | 0.3 | -1.5 | -7 | -2 | C[C@@H]1CN([C@@H](C)CO)C(=O)c2cc(NC(=O)Cc3ccccc3)ccc2O[C@@H]1CN(C)S(=O)(=O)c1ccccc1
i | -1.6&-5.0 | 4.1 | 9 | 8 | C[C@H](CO)N1C[C@H](C)[C@H](CN(C)C(=O)c2ccccn2)Oc2ncc(Br)cc2C1=O
i | 3.3 | -1.8 | 5 | -3 | COc1ccc(NC(=O)N(C)C[C@@H]2Oc3ncc(C#Cc4ccccc4)cc3C(=O)N([C@H](C)CO)C[C@@H]2C)cc1
i | 2.6 | 0.0 | 9 | 4 | CO[C@H]1CN(C)C(=O)c2cc(NC(C)=O)ccc2OC[C@@H](C)N(Cc2ccccc2F)C[C@H]1C
i | -0.1 | -3.7 | 0 | -6 | C[C@]1(O)CC(=O)C=C[C@H]1Nc1ccccc1
i | -1.2 | 0.2 | 5 | 0 | C[C@@H]1CN([C@@H](C)CO)C(=O)c2cccc(NS(=O)(=O)c3ccc(F)cc3)c2O[C@@H]1CN(C)CC1CCCCC1

Of the compounds above, 3 contain a halogen.
FGF22 binding | AF4-AF9 inh | Ecoli rRNA inh RFP | Ecoli rRNA inh OD600 | Ecoli rRNA inh | compound
i | -1.6&-5.0 | 4.1 | 9 | 8 | C[C@H](CO)N1C[C@H](C)[C@H](CN(C)C(=O)c2ccccn2)Oc2ncc(Br)cc2C1=O
i | 2.6 | 0.0 | 9 | 4 | CO[C@H]1CN(C)C(=O)c2cc(NC(C)=O)ccc2OC[C@@H](C)N(Cc2ccccc2F)C[C@H]1C
i | -1.2 | 0.2 | 5 | 0 | C[C@@H]1CN([C@@H](C)CO)C(=O)c2cccc(NS(=O)(=O)c3ccc(F)cc3)c2O[C@@H]1CN(C)CC1CCCCC1

The list goes on.
FGF22 binding | AF4-AF9 inh | Ecoli rRNA inh RFP | Ecoli rRNA inh OD600 | Ecoli rRNA inh | compound
i | 0.7 | 1.6 | -2 | 0 | COC(=O)C[C@H]1CC[C@@H]2[C@H](COc3ccc(NC(=O)C4CCOCC4)cc3C(=O)N2C)O1
i | -1.1 | -1.6 | 2 | 2 | CCCCCCNC(=O)OC12CN(C(=O)OC(C)C)N(C(=O)OC(C)C)CC1(O)CN(S(=O)(=O)c1ccc(C)cc1)C2 (centres undefined)
i | 2.0 | 0.2 | 3 | 0 | C[C@H]1CN([C@@H](C)CO)C(=O)Cc2cc(NC(=O)C3CCCCC3)ccc2O[C@H]1CN(C)C(=O)NC1CCCCC1
i | 1.4 | 2.5 | -18 | 1 | C/C=C/c1ccc([C@@H]2[C@@H](C#N)N(c3nc(CC)cs3)[C@H]2CO)cc1
i | -1.1 | 2.1 | 5 | 1 | C[C@H]1CN([C@@H](C)CO)C(=O)c2cc(C3=CCCCC3)cnc2O[C@@H]1CN(C)C(=O)Nc1ccccc1
i | 0.5 | 0.2 | -11 | -1 | C[C@@H]1CN([C@@H](C)CO)C(=O)c2cc(NC(=O)Nc3ccccc3)ccc2O[C@H]1CN(C)Cc1ccc(-c2ccccc2)cc1
i | 1.8 | -2.7 | -3 | -4 | O=C(C[C@H]1C=C[C@H](NC(=O)Nc2ccc(F)cc2)[C@H](CO)O1)NCc1ccccn1
i | -1.6 | -0.5 | 1 | 5 | CCC(=O)N1[C@H](CO)[C@H](c2ccc(-c3ccc(F)cc3)cc2)[C@@H]1CN(C)C(C)=O

Record cards (already shown).
`CCCCCCNC(=O)OC12CN(C(=O)OC(C)C)N(C(=O)OC(C)C)CC1(O)CN(S(=O)(=O)c1ccc(C)cc1)C2` (centres undefined) in the list: FGF22 binding = i; AF4-AF9 inh = -1.1; Ecoli rRNA inh RFP = -1.6; Ecoli rRNA inh OD600 = 2; Ecoli rRNA inh = 2
`C/C=C/c1ccc([C@@H]2[C@@H](C#N)N(c3nc(CC)cs3)[C@H]2CO)cc1` in the list: FGF22 binding = i; AF4-AF9 inh = 1.4; Ecoli rRNA inh RFP = 2.5; Ecoli rRNA inh OD600 = -18; Ecoli rRNA inh = 1

Next section.
FGF22 binding | AF4-AF9 inh | Ecoli rRNA inh RFP | Ecoli rRNA inh OD600 | Ecoli rRNA inh | compound
i | 0.3 | 2.7 | 1 | -3 | COc1ccc2c3c([nH]c2c1)[C@@H](CO)N(C(=O)c1ccccn1)CC31CCN(C(=O)C2CCCC2)CC1
i | -4.8 | -0.1 | 9 | 9 | O=S1(=O)C[C@@H](N2CCN(CCO)CC2)[C@H](COCc2ccccc2)N1
i | 1.4 | -3.1 | 4 | 4 | COCC(=O)Nc1ccc2c(c1)C(=O)N(C)[C@@H]1CC[C@@H](CC(=O)NCC3CC3)O[C@H]1CO2
i | -0.8 | -1.6 | -1 | -4 | COc1ccc(S(=O)(=O)N(C)C[C@@H]2OCCCC[C@@H](C)Oc3ccc(NS(=O)(=O)c4ccc(C)cc4)cc3C(=O)N([C@@H](C)CO)C[C@H]2C)cc1
i | -1.5 | -0.2 | 2 | 1 | CN1C(=O)c2cc(NC(=O)c3cnccn3)ccc2OC[C@H]2O[C@@H](CC(=O)N[C@H]3CCN(Cc4ccccc4)C3)CC[C@@H]21
i | -1.5 | -0.9 | -1 | 5 | CCc1nc2ccc(C(=O)N(CC)CCN(C)C)cn2c1N(CC)CCOC
i | 1.5 | -2.6 | -4 | 5 | CCCCN1C(=O)C(CC(=O)NC2CCCCC2)CC(C(=O)N(CC)CC)=C1C (centres undefined)
i | -2.3 | -0.2 | 3 | 0 | C[C@H](CO)N1C[C@H](C)[C@@H](CN(C)S(C)(=O)=O)Oc2c(NC(=O)Nc3ccc(F)cc3)cccc2C1=O
i | -2.5 | -0.8 | 7 | 2 | CCCC(=O)Nc1ccc2c(c1)C(=O)N(C)[C@@H]1CC[C@H](CC(=O)NC3CCCC3)O[C@H]1CO2
i | 1.6&0.3 | 1.4&0.5 | -6&8 | 0&19 | CCC(c1nnnn1-c1ccc2c(c1)OCCO2)N1CCN(c2ncccc2C(F)(F)F)CC1 (centres undefined)
i | 1.2 | -2.2 | 3 | 3 | COc1ccccc1-c1cn(CC[C@@H]2CC[C@H](NC(=O)CCN3CCCCC3)[C@H](CO)O2)nn1
· | -1.0 | -1.1 | -21 | -13 | Cc1cc2c(nc1C)CCCN2S(=O)(=O)c1ccccc1
i | -0.2 | -2.0 | 4 | 3 | C[C@@H]1CN([C@H](C)CO)C(=O)c2cc(NC(=O)Nc3cccc4ccccc34)ccc2O[C@@H]1CN(C)Cc1ccc(-c2ccccc2)cc1
i | 2.8 | -1.1 | 5 | 1 | C[C@@H]1CN([C@@H](C)CO)C(=O)Cc2cc(NC(=O)Nc3ccc(C(F)(F)F)cc3)ccc2O[C@H]1CN(C)C(=O)Nc1ccc(C(F)(F)F)cc1
+ | 1.2 | 7.2 | -5 | -4 | C[C@@H]1CCCCO[C@@H](CN(C)CC2CCCCC2)[C@@H](C)CN([C@@H](C)CO)C(=O)c2cc(NC(=O)Nc3cccc4ccccc34)ccc2O1
i | -2.7 | -4.7 | -1 | -4 | C[C@H]1CN([C@@H](C)CO)C(=O)c2ccccc2-c2ccccc2CO[C@@H]1CN(C)Cc1ccncc1
i | 1.3 | -1.1 | -5 | 2 | COc1ccc(S(=O)(=O)N(C)C[C@@H]2OCCCC[C@@H](C)Oc3ccc(NC(=O)c4ccccc4)cc3C(=O)N([C@H](C)CO)C[C@@H]2C)cc1
i | -1.4 | 2.1 | 14 | 4 | CC(C)C[C@H]1COc2c(Cl)cccc2S(=O)(=O)N1Cc1ccc(F)cc1F
i | 0.1 | -1.7 | -6 | 0 | COc1ccc(S(=O)(=O)N(C)C[C@H]2Oc3ccc(NC(=O)CCCN(C)C)cc3CC(=O)N([C@H](C)CO)C[C@H]2C)cc1
i | -0.3 | -5.9 | -2 | -2 | Cc1cccc(S(=O)(=O)N2C[C@H](O)COC[C@@H]3O[C@H](CC(=O)NCCCN4CCOCC4)CC[C@H]32)c1
i | 0.2 | 3.0 | 3 | 5 | C[C@@H]1CCCCO[C@H](CN(C)S(=O)(=O)c2ccc(F)cc2)[C@H](C)CN([C@H](C)CO)C(=O)c2cc(NC(=O)Nc3cccc4ccccc34)ccc2O1
i | -0.7 | -3.2 | -3 | -3 | C[C@@H]1CCCCO[C@H](CN(C)C(=O)Nc2cccc3ccccc23)[C@@H](C)CN([C@H](C)CO)C(=O)c2cc(NS(=O)(=O)c3cccs3)ccc2O1
i | 2.8 | 5.7 | -2 | -2 | COc1cccc(-c2cnc3c(c2)C(=O)N([C@@H](C)CO)C[C@@H](C)[C@H](CN(C)Cc2ccccc2)O3)c1
i | -4.7 | 0.2 | 10 | 4 | Nc1ccc2c(c1)C(O)c1cccc(C(=O)O)c1-2 (centres undefined)
i | 3.9 | -0.9 | 8 | 6 | CNC[C@H]1OCCCC[C@H](C)Oc2ccc(NC(=O)Nc3ccc(OC)cc3)cc2C(=O)N([C@@H](C)CO)C[C@@H]1C
i | 0.4 | -1.7 | 5 | 0 | O=C(Cc1ccncc1)N[C@H]1CC[C@@H](CCn2cc(-c3ccccc3F)nn2)O[C@H]1CO
i | 1.5 | -0.9 | -3 | 0 | CO[C@H]1CN(C)C(=O)c2ccc(NC(C)=O)cc2OC[C@H](C)N(C(=O)C2CCCCC2)C[C@@H]1C
i | 5.4 | -0.5 | 4 | 5 | O=C(CN1CCOCC1)N1CCCCN2[C@H](CO)[C@H](c3ccc(-c4ccccc4)cc3)[C@H]2C1
i | 1.1 | -0.1 | 7 | 2 | COc1ccc(S(=O)(=O)N2CC[C@@H]3[C@@H](CO)Nc4ccc(C#Cc5ccccc5OC)cc4[C@@H]32)cc1
i | 0.9 | 3.9 | -13 | -11 | CSc1cccc(CNC(=O)C2CCC(=O)N(CCc3ccccc3)C2)c1 (centres undefined)
i | 2.3 | -2.9 | 7 | -4 | CN[C@@H](CO)C(=O)NC[C@H]1O[C@@H](n2cnc3c(=O)[nH]c(N)nc32)[C@H](O)[C@@H]1O
i | 8.3 | 6.4 | -3 | 0 | O=C(C=P(c1ccccc1)(c1ccccc1)c1ccccc1)c1ccccc1-c1ccccc1C(=O)C=P(c1ccccc1)(c1ccccc1)c1ccccc1
i | -9.3 | -1.7 | 6 | 0 | Cc1csc(NC(=O)CSc2nc3[nH]c(=O)cc(O)c3s2)n1
i | 1.6 | 1.2 | -21 | -17 | COC(=O)c1cc2c(c3c4cc(OC)ccc4n(S(=O)(=O)c4ccc(F)cc4)c13)C(=O)N(C)C2
i | 4.6 | 2.4 | 5 | 0 | C[C@H](CO)N1C[C@H](C)[C@@H](CN(C)C(=O)Nc2ccc(C(F)(F)F)cc2)Oc2ncc(/C=C/c3ccccc3)cc2C1=O
i | 0.6 | 32 | -30 | -22 | COc1cccc(CN2CC3(C2)CN(C(=O)Nc2ccc(F)cc2)[C@H](CO)c2c3c3ccc(OC)cc3n2C)c1
i | -2.6 | -0.7 | 3 | 5 | C[C@H](O)C#Cc1cnc2c(c1)C(=O)N([C@H](C)CO)C[C@@H](C)[C@@H](CN(C)C(=O)Nc1ccc(C(F)(F)F)cc1)O2
i | -4.6 | -0.2 | 10 | 6 | Cc1ccc(S(=O)(=O)Nc2ccc3c(c2)C(=O)N([C@H](C)CO)C[C@H](C)[C@@H](CN(C)C(=O)CCCN(C)C)OCCCC[C@@H](C)O3)cc1
i | 1.6 | -1.8 | -3 | -5 | CCC(=O)N1[C@@H]2c3ccc(C4=CCCCC4)c(=O)n3C[C@@H]2[C@@H](CO)[C@@H]1C(=O)Nc1nccs1
i | 0.0 | -2.2 | 4 | 2 | O=C(NCC[C@H]1CC[C@H](NC(=O)C2CCCCC2)[C@H](CO)O1)c1ccc(F)cc1
i | 19 | 15 | -9 | -1 | C[C@H]1CN([C@@H](C)CO)S(=O)(=O)c2ccc(C#Cc3ccc(F)cc3)cc2O[C@@H]1CN(C)C(=O)CN(C)C
i | -13 | 1.1 | 6 | 1 | CO[C@H]1CN(C)C(=O)c2cc(NS(=O)(=O)c3cccc(Cl)c3)ccc2OC[C@H](C)NC[C@@H]1C
i | 10 | 19 | -40 | -1 | Cc1noc(C)c1NC(=O)Nc1ccc2c(c1)C(=O)N([C@H](C)CO)C[C@H](C)[C@H](CN(C)Cc1ccc(-c3ccccc3)cc1)O2
i | -0.7 | -4.2 | 9 | 1 | Cc1ccccc1-c1ccc([C@H]2[C@@H](CO)N3C(=O)CN(C(=O)c4ccncc4)C[C@@H]23)cc1
i | -2.6 | -2.2 | 4 | 7 | C[C@@H]1CN([C@@H](C)CO)C(=O)c2cc(NS(=O)(=O)c3cn(C)cn3)ccc2O[C@H]1CN(C)C(=O)NC1CCCCC1
i | -11 | -5.7 | -3 | 0 | Cc1ccc(S(=O)(=O)Nc2cccc3c2O[C@@H](CN(C)C(=O)Nc2c(C)noc2C)[C@H](C)CN([C@H](C)CO)C3=O)cc1

An excerpt (hit frequency here may not be typical).
